Compound activity (PubChem)
ugtP null kill: kills S. aureus RN4220 lacking UgtP; S. aureus RN4220 ugtP deletion, OD600 growth, 16 h; some inactives read as strong as hits; growth inhibition, % (test concentration not listed); 330,000 tested, 0.54% active;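 active = z-score under -3 and OD600 up to 0.15 on both plates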;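 note: plate controls were untreated wells for no effect and antibiotic for full effect; wells of about 80 µL received 100 nL stock; the first replicate is given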
PrP 5UTR inh: inhibition of PrP 5' UTR reporter expression; cell-based PrP 5' UTR mRNA reporter, plate reader; inhibition, % (test concentration not listed); 340,000 tested, 0.35% active; AID 488862;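 active = every replicate at 50% or more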;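 note: 0 = median of the neutral control wells; tested in H4 reporter cells; numbers are from one replicate; inactives centre near -14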
Sa RN4220 lethal: kills Staphylococcus aureus RN4220; S. aureus RN4220 growth, OD600, 16 h; 330,000 tested, 0.33% active; AID 1259311; inhibition, % (concentration not given with the values);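 active = z-score of -3 or lower and OD600 up to 0.18 on both plates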;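 note: plate controls were untreated cells for no effect and reference antibiotic for full effect; stock transfer was 100 nL into about 80 µL; one replicate is shown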
BJeLR viability: BJeLR cell viability loss; BJeLR (HRASV12) viability, CellTiter-Glo ATP luminescence, 48 h; reference of the scale not given here; inhibition, % (test concentration not listed); 300,000 tested, 0.17% active; AID 1554;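 active = replicate mean above 50%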;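 note: 50 nL library stock added to about 25 µL; numbers are from one replicate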
Mtb hypoxia rep: Mtb hypoxia fluorescent reporter inhibition; M. tuberculosis hypoxia-regulated fluorescent reporter, fluorescence; fluorescence inhibition, % (test concentration not listed); 300,000 tested, 0.1% active; AID 1159583;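 active = 35 to 45% if threefold the growth effect, above 45% if 1.5-fold the growth effect; inactive = the rest, general growth blockers included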;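 note: wells of about 50 µL received 100 nL stock; 0% = vehicle wells and 100% = reference inhibitor wells; whole bacteria with a GFP reporter of the hypoxia response; strong numbers were not always called active; many hits fall short of the cut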
Autofluor counter: compound fluorescence in toxin protease inhibitor counterscreen. compound autofluorescence counterscreen, microsphere flow cytometry; hits give high values. fluorescence intensity (no concentration beside the values). 360,000 tested, 3.1% active;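 active = at least 3 SD above the mean of all compounds, about 16000 in these data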;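 note: 100 nL of 1 mM stock went into each well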
Mtb hypoxia rep growth: also measured in Mtb hypoxia rep; calls as there; growth inhibition, %; measured here: M. tuberculosis growth (absorbance);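 0% = vehicle and 100% = reference antibiotic; read after six days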
Starred values were filed as active, the others as inactive; · = not tested or not shown; & = joins results of further samples.

compound	ugtP null kill	PrP 5UTR inh	Sa RN4220 lethal	BJeLR viability	Mtb hypoxia rep	Mtb hypoxia rep growth	Autofluor counter
CC(CC(=O)NNC(=O)c1cccc(Cl)c1)c1ccccc1 (stereo unspecified)	·	-26	·	-12	·	·	6021
COc1ccccc1NS(=O)(=O)c1cc(C(=O)NCCCN2CCCC2=O)ccc1C	0	3	1.8	·	10	7	4081
O=C(CNC(=O)c1ccccc1F)NN=Cc1cn[nH]c1-c1ccccc1	13	·	-1.5	·	-2	5	·
Cc1ccccc1NC(=O)CC(O)(C(F)(F)F)C(F)(F)F	-2	-31	3.1	-11	16	2	8760
Nc1ccccc1C(=O)NCc1ccc(Cl)cc1	2	-20	3.5	2	10	13	1956
COC(=O)C1=C(c2ccccc2OCc2ccccc2)CC2CCC1N2C(=O)NCc1ccc(C(C)(C)C)cc1 (stereo unspecified)	8	·	-11	·	10	0	·
Cc1ccc(N=Cc2sccc2C)cc1C	4	-11	2.1	-4	6	5	2104
CC1CC=C(c2ccccc2)C(=S)N1 (stereo unspecified)	4	-17	3.6	-1	5	2	4271
Cc1ccc(S(=O)(=O)N=C2C=C(C3C(=O)CC(C)(C)CC3=O)C(=O)c3ccccc32)cc1	-11	·	9.0	·	-1	8	·
CN(C(=O)C(Cl)Cl)C1CC2C=CC1C2 (stereo unspecified)	2	-21	1.4	-8	12	4	4074
Fc1ccccc1OCCCCn1cncn1	-1	-21	0.6	9	·	·	5749
CCN(CC)CC(=O)N1c2ccccc2CCc2ccc(NC(=O)c3cc(OC)c(OC)c(OC)c3)cc21	-4	-31	-1.1	-11	9	2	5360
CC1(C)Oc2ccc3ccc(=O)oc3c2C(C=NO)C1=O (stereo unspecified)	11	·	2.4	·	14	12	·
O=C(CSc1nnc(-c2cccc(Cl)c2)o1)Nc1ccc2c(c1)OCCO2	-8	-44	3.9	·	4	12	22299*
COCCn1c(SCC(=O)NC2CCCC2)nc2c(c1=O)SCC2	-1	2	3.6	-14	-4	0	4318
CC(C)(C)c1ccc(S(=O)(=O)N2CCN(C3CCCC3)CC2)cc1	3	-2	2.3	-6	3	-1	6352
COc1cc(C)ccc1S(=O)(=O)n1nc(C)cc1C	1	-10	7.6	2	3	-1	5002
O=C(Nc1cccc(O)c1)c1cccc(C(=O)Nc2cccc(O)c2)c1	4	-4	0.5	4	47*	-2.5*	4721
Cc1ccccc1Cn1cc(NC(=O)c2cc(-c3ccco3)on2)cn1	7	-19	1.6	3	5	8	4486
CC(=NNS(=O)(=O)c1ccc(Br)cc1)c1ccncc1	3	·	4.2	·	5	-2	·
Cc1ccc(C)c(S(=O)(=O)C(C#N)c2nc3ccccc3nc2N2CCCC2)c1 (stereo unspecified)	-4	1	1.6	6	3	2	20606*
CCOc1ccc(C(=O)C[n+]2cccc3cc(C)ccc32)cc1	5	-29	2.4	5	6	3	25078*
CCCCCC(=O)N1CC2(CC(c3cccc(NC(=O)c4ccccc4)c3)=NO2)CC1C(N)=O (stereo unspecified)	1	·	2.0	·	4	11	·
O=C(Nc1ccc([N+](=O)[O-])cc1)Nc1ccc2[nH]c(=O)[nH]c2c1	·	-33	·	8	·	·	3061
O=C(CNC(=O)c1ccc(S(=O)(=O)N2CCCC2)cc1)N/N=C/c1ccco1	·	6	·	2	·	·	1965

4 compounds drawn at random from the list so far:
compound	ugtP null kill	PrP 5UTR inh	Sa RN4220 lethal	BJeLR viability	Mtb hypoxia rep	Mtb hypoxia rep growth	Autofluor counter
O=C(CNC(=O)c1ccc(S(=O)(=O)N2CCCC2)cc1)N/N=C/c1ccco1	·	6	·	2	·	·	1965
Cc1ccc(C)c(S(=O)(=O)C(C#N)c2nc3ccccc3nc2N2CCCC2)c1 (stereo unspecified)	-4	1	1.6	6	3	2	20606*
CN(C(=O)C(Cl)Cl)C1CC2C=CC1C2 (stereo unspecified)	2	-21	1.4	-8	12	4	4074
O=C(CNC(=O)c1ccccc1F)NN=Cc1cn[nH]c1-c1ccccc1	13	·	-1.5	·	-2	5	·

The list continues:
compound	ugtP null kill	PrP 5UTR inh	Sa RN4220 lethal	BJeLR viability	Mtb hypoxia rep	Mtb hypoxia rep growth	Autofluor counter
COc1ccc2c(CC(=O)NNC(=O)c3ccc(C)cc3)coc2c1	-2	-15	5.4	·	12	20	3797
COCCn1ccc(O)c(Cc2ccccc2)c1=O	-4	-12	1.0	4	-3	9	·
COc1cc(C)c(CN2CCN(CC(=O)Nc3ccccc3C(=O)NC3CC3)CC2)cc1OC	11	-12	4.7	·	0	-1	3031
COc1ccc(C(CNC(=O)CCNC(=O)c2ccc(Br)cc2)N2CCOCC2)cc1 (stereo unspecified)	·	6	·	-5	·	·	4472
CCCCCCCN1CCC(=O)N(C(CO)Cc2ccccc2)CC1 (stereo unspecified)	8	·	3.9	·	19	0	·
CCOC(=O)N1CCC(NC(=O)C2CCC(CNS(=O)(=O)c3ccc(OC)cc3)CC2)CC1 (stereo unspecified)	-1	-21	2.3	·	·	·	3712
N#Cc1ccc(C(=O)CSc2nnc(-c3ccc(C(F)(F)F)cn3)s2)cc1	-15	-10	7.8	-2	-2	9	4273
Cc1noc2ncnc(Oc3cc(Cl)ccc3Cl)c12	8	7	5.9	-12	2	-4	4257
O=S(=O)(NC1CCCCCCC1)c1ccccc1F	8	-18	8.0	-7	13	11	3852
CCN(CC(=O)Nc1ccccc1C(F)(F)F)C(=O)CCc1ccccc1	·	2	·	-1	·	·	3864
Cc1cc(CSCc2ccc(Cl)cc2)no1	13	-13	7.1	4	2	-3	3914
Cc1c(C(=O)NCC2COc3ccccc3O2)oc2ccc(S(=O)(=O)N(C)C3CCCCC3)cc12 (stereo unspecified)	-16	1	2.6	-4	2	-3	10819
O=C(O)c1ccc(CSc2nc3ccc(N4C(=O)C5C6C=CC(C6)C5C4=O)cc3s2)cc1 (stereo unspecified)	-6	-47	8.3	5	-1	-3	2372
CN(C)c1ccc(C(C(=O)NC2CCCC2)N(C(=O)c2ccco2)C2CC2)cc1 (stereo unspecified)	13	-11	6.2	4	9	1	3048
Cc1nn(C(=O)c2cc3sccc3[nH]2)c(C)c1C	-5	-56	15	6	8	14	5861
Nc1cc(-c2ccc(Br)cc2)nn1S(=O)(=O)c1ccccc1	1	-11	1.7	2	1	-1	5785
COc1ccc2oc(C(=O)OCC(=O)NC(C)c3ccccc3)c(C)c2c1 (stereo unspecified)	2	-13	3.0	-15	1	-1	6045
COc1ccc(CNC(=O)C2CCCN(S(=O)(=O)c3cccc4nsnc34)C2)cc1 (stereo unspecified)	8	-23	4.2	14	5	2	5055
O=C(CNC(=O)c1cccc(Br)c1)NN=Cc1ccc[nH]1	-3	·	0.4	·	-3	7	·
CCOC(=O)C(/C=C(\C#N)C(=O)OCC)=C(/N)N1CCN(c2c(C)cccc2C)CC1	-6	1	-11	-16	3	-5	3245
CCOCc1nc(C)c(Cl)c(NS(=O)(=O)c2ccc(N)cc2)n1	2	-9	-4.7	0	-12	2	3061
C=CCn1c(SCC(=O)Nc2c(C)cccc2C)nnc1-c1ccncc1	7	-8	3.0	-3	8	11	2666
CS(=O)(=O)c1cccc(NC(=O)c2ccc(Cl)c(Cl)c2)c1	1	-35	4.8	1	5	3	2514
Cc1ccc(-c2[nH]ncc2C(=O)c2ccccc2C)c(O)c1	7	-5	-0.3	4	15	8	3804
C/C(N)=C(/C#N)C(=O)CSc1n[nH]c(-c2ccccc2Br)n1	0&5	-7&-31	1.3&3.4	-6	6&-5	-1&14	3000&3990

Five entries from above, with values under each structure.
Order of values – ugtP null kill | PrP 5UTR inh | Sa RN4220 lethal | BJeLR viability | Mtb hypoxia rep | Mtb hypoxia rep growth | Autofluor counter
COc1ccc(C(CNC(=O)CCNC(=O)c2ccc(Br)cc2)N2CCOCC2)cc1 (stereo unspecified)
→ · | 6 | · | -5 | · | · | 4472
CC(=NNS(=O)(=O)c1ccc(Br)cc1)c1ccncc1
→ 3 | · | 4.2 | · | 5 | -2 | ·
CCN(CC)CC(=O)N1c2ccccc2CCc2ccc(NC(=O)c3cc(OC)c(OC)c(OC)c3)cc21
→ -4 | -31 | -1.1 | -11 | 9 | 2 | 5360
CC1(C)Oc2ccc3ccc(=O)oc3c2C(C=NO)C1=O (stereo unspecified)
→ 11 | · | 2.4 | · | 14 | 12 | ·
CCOCc1nc(C)c(Cl)c(NS(=O)(=O)c2ccc(N)cc2)n1
→ 2 | -9 | -4.7 | 0 | -12 | 2 | 3061

Some values from the list:
For ugtP null kill, `C=CCn1c(SCC(=O)Nc2c(C)cccc2C)nnc1-c1ccncc1` is entered as 7
For Sa RN4220 lethal, `O=C(CNC(=O)c1cccc(Br)c1)NN=Cc1ccc[nH]1` is entered as 0.4
For Autofluor counter, `Cc1cc(CSCc2ccc(Cl)cc2)no1` is entered as 3914

Continuation.
compound	ugtP null kill	PrP 5UTR inh	Sa RN4220 lethal	BJeLR viability	Mtb hypoxia rep	Mtb hypoxia rep growth	Autofluor counter
N#CCSc1nnc(COc2cccc3ccccc23)n1-c1cccc(Cl)c1	-26	-13	-1.3	2	7	5	8620
O=C(NCc1ccc(Cl)c(Cl)c1)c1ccco1	-3	-2	4.0	11	·	·	·
NC(=O)COC(=O)c1ccc(-c2ccccc2)cc1	9	-19	11	11	6	7	4678
CN(CCc1ccccc1)C1CCCN(C(=O)Cn2cccn2)C1 (stereo unspecified)	2	-19	2.1	2	6	7	6044
C[C@]12CCC3c4ccc(O)c(O)c4CCC3C1CCC2O (stereo partly specified)	-8	·	31	·	10	1	·
COc1ccc(-c2csc(N(CCCN(C)C)C(=O)c3cccs3)n2)cc1	-6	-17	2.9	-4	3	15	21006*
CCN1CCN(C(=O)c2ccccc2N(Cc2ccccc2)S(=O)(=O)c2ccc(OC)cc2)CC1	3	-19	3.4	-3	-1	-2	4921
CCOC(=O)C1=C(c2ccccc2)OC(N)=C(C#N)C1c1ccc(Cl)s1 (stereo unspecified)	2	-17	15	6	3	-3	9415
CCn1ncc(CN2CCN(Cc3ccc(OC)c(C)c3C)C(CCO)C2)c1C (stereo unspecified)	8	-23	1.8	3	13	-1	5056
O=C(CN1C(=O)C2C3C=CC(C3)C2C1=O)NCCC1=CCCCC1 (stereo unspecified)	-5	-5	-2.2	8	·	·	2734
CCN(CC)CCOC(=O)C1(c2ccccc2)CCOCC1	5	-15	-2.3	-2	·	·	4178
COc1ccc(CN(C(CO)CC(C)C)S(=O)(=O)N(Cc2ccccc2)C(CO)CC(C)C)cc1 (stereo unspecified)	-4	·	2.3	·	7	0	·
Cc1nnc(NC(=O)C(C)Sc2nncn2C)s1 (stereo unspecified)	1	-38	-12	-3	6	8	5321
Cn1c(SCc2nc(-c3ccc(Cl)cc3)no2)nnc1-c1ccco1	9	-2	8.7	7	1	7	5315
CCCN(CCO)Cc1cccc(Br)c1	2	-33	2.4	-9	8	4	10271
S=C(Nc1cccnc1)Nc1ccccn1	·	-22	·	-1	·	·	4629
CCC(c1nnc(SCC(=O)Nc2ccc(S(N)(=O)=O)cc2)n1Cc1ccccc1)N(C)C (stereo unspecified)	4	-8	1.9	-18	-5	2	3303
S=c1[nH]nc(-c2cc(-c3ccccc3)n[nH]2)n1/N=C/c1ccc(Cl)c(Cl)c1	·	-20	·	3	·	·	4804
Cc1ccccc1-n1nc2c(c1NC(=O)C(C)(C)C)CS(=O)(=O)C2	4	-16	1.7	2	3	-1	4120
O=C1C(=O)N(c2ccccc2)P(=O)(N(CCCl)CCCl)N1c1ccccc1	5	-51	3.6	·	10	7	3982
Cn1c(-c2ccc(F)cc2)cnc1SCC(=O)N1CCCc2ccccc21	2	-23	4.0	-9	9	6	2349
Cc1ccc(C(=O)Nc2ccc(C(F)(F)F)n(C)c2=O)cc1	-5	-114	9.7	4	15	9	4366
CCNc1nc(NCC)nc(N(C)N)n1	-3	5	3.0	-18	-4	4	3817
COc1ccc(SCCCn2c(=O)c3c(ncn3C)n(C)c2=O)cc1	15	-18	2.8	0	-2	4	5393
CC(NC(=O)C(c1ccccc1)c1ccccc1)c1ccccc1 (stereo unspecified)	18	0	2.2	-3	-10	-4	3289
